Screens (PubChem BioAssay)
V. cholerae motility = Vibrio cholerae motility inhibitors, OD read-out (AID 588778); Vibrio cholerae motility, OD read-out; higher % means a stronger effect; test concentration not given here; primary cut-off and reference of the scale not given here; strong numbers were not always called active; inhibition, %, or IC50 in µg/mL where a hit was titrated; 10,000 tested, under 10 active; in the data active = confirmed in a dose series
V. cholerae motility viability = also measured in V. cholerae motility; calls as there; inhibition, %; measured here: bacterial viability at 10 ug/mL;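 higher means fewer living bacteria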
The depositor's hits bear a star. The list is partial (hit frequency here may not be typical).

Each structure is followed by: V. cholerae motility, V. cholerae motility viability
Cc1c(Nc2ncnc3c2cnn3-c2ccccc2)c(=O)n(-c2ccccc2)n1C
 : -6%, -2
O=C(COc1ccc([N+](=O)[O-])cc1)Nc1ccc(-c2nc3ccccc3s2)c(Cl)c1
 : -3%, -4
COc1cc2c(cc1OC)C(C)N(c1ncnc(N)c1[N+](=O)[O-])CC2 (centres undefined)
 : -5%, -4
CCC(=O)Oc1cccc2ccc(/C=C/c3ccccc3F)nc12
 : -6%, -10
CCC(Sc1nnnn1-c1ccccc1)C(=O)Nc1sc2c(c1C#N)CCCC2 (centres undefined)
 : -6%, -5
N#Cc1ccc2ccn(CC(=O)NCc3ccco3)c2c1
 : 19%, 6
Cn1cc(NC(=O)Nc2cccc(Cl)c2Cl)c(C(N)=O)n1
 : -20%, -12
Nc1c(C(=O)Nc2ccc([N+](=O)[O-])cc2)sc2nc3c(c(-c4ccco4)c12)CCCC3
 : -14%, -4
Cc1cc(Cl)cc(Br)c1OCCCSc1ncccn1
 : 4%, -1
CCN(CC)C(=O)c1sc(NC(=S)Nc2nn(Cc3ccc(Cl)cc3)cc2Br)c(C(=O)OC)c1C
 : -1%, -1

Going on with the list:
Each structure is followed by: V. cholerae motility, V. cholerae motility viability
CC1CN(CCNc2ccc(C(F)(F)F)cc2[N+](=O)[O-])C(=O)O1 (centres undefined)
 : -27%, -7
CN(C)C(=O)N1CCN(C(=O)c2ccccc2Sc2ccccc2C#N)CC1
 : 15%, 1
Cn1nccc1CNC(=O)c1ccc(-c2ccccc2)cc1
 : -19%, -9
COc1cc2c(cc1NC(=O)CSc1nnnn1C)oc1ccccc12
 : -9%, -6
CCc1cc2c(=O)oc(-c3ccccc3F)nc2s1
 : 10%, 7
COCCNC(=S)NNC(=O)c1ccco1
 : -8%, -4
Cc1nn(C)c(-c2n[nH]c(=S)n2-c2ccc(CC(=O)O)cc2)c1Br
 : 6%, 9
COC(=O)c1c(NC(=S)Nc2cc(C(F)(F)F)ccc2Cl)sc2c1CCCCC2
 : -2%, -1
O=C(C(=O)N1CCCC1)c1c(-c2ccccc2)[nH]c2ccccc12
 : 14%, 3
COc1ccc(NC(=O)C(C)Sc2ccccc2)cc1 (centres undefined)
 : 16%, 6

Remaining list, next part.
Each structure is followed by: V. cholerae motility, V. cholerae motility viability
O=C(CCc1nc2ccccc2[nH]c1=O)OCc1ccc(S(=O)(=O)c2ccccc2)cc1
 : -14%, -6
COc1cc(NC(=O)CS)cc(OC)c1
 : -29%, -11
OCc1cc(Cl)c(OCc2ccccc2F)c(Br)c1
 : 0%, 7
Cc1ncsc1CCSc1nc2ccccc2c(=O)n1C
 : 0%, -6
O=C(O)c1ccccc1-c1ccccc1C(=O)Nc1nc(-c2ccccc2)cs1
 : 2%, -1
CCOc1cc(N)c([N+](=O)[O-])cc1Cl
 : 17%, 5
Cc1cc2ccccc2n2c(SCC(=O)Nc3nsc(-c4ccccc4)n3)nnc12
 : 4%, 0
Cc1nc2ccccn2c1/C(O)=C1\C(=O)C(=O)N(CCN(C)C)C1c1ccncc1 (centres undefined)
 : 12%, 0
CCOC(=O)CC1C(=O)NCCN1C(=O)COc1ccc(Br)cc1C (centres undefined)
 : 2%, 3
CCC1=NN2C(=N)/C(=C/c3ccc(OCc4ccccc4Cl)c(OC)c3)C(=O)N=C2S1
 : 13%, 5

Part of the list above, field by field:
SMILES: O=C(CCc1nc2ccccc2[nH]c1=O)OCc1ccc(S(=O)(=O)c2ccccc2)cc1
  V. cholerae motility: -14%
  V. cholerae motility viability: -6
SMILES: COc1cc(NC(=O)CS)cc(OC)c1
  V. cholerae motility: -29%
  V. cholerae motility viability: -11
SMILES: OCc1cc(Cl)c(OCc2ccccc2F)c(Br)c1
  V. cholerae motility: 0%
  V. cholerae motility viability: 7
SMILES: Cc1ncsc1CCSc1nc2ccccc2c(=O)n1C
  V. cholerae motility: 0%
  V. cholerae motility viability: -6

Next structures:
Each structure is followed by: V. cholerae motility, V. cholerae motility viability
CN1CCN(C(=O)c2ccccc2NC(=O)Nc2ccccc2)CC1
 : 16%, 2
COc1ccc(NC(=O)Nc2nccs2)cc1
 : 8%, -8
Cc1ccc(-c2nc3s/c(=C/c4ccc(C(C)C)cc4)c(=O)n3n2)cc1
 : 1%, 33
Cc1ccc(-c2c(C(=O)NNC(=S)NCC3CCCO3)csc2C)cc1 (centres undefined)
 : 17%, -3
O=[N+]1C=C(c2ccco2)N([O-])C2CCCCC21 (centres undefined)
 : 9%, 5
Cc1ccc(-n2c(Cc3c[nH]c4ccccc34)n[nH]c2=S)c(Br)c1
 : 71%, 28
O=C(COc1ccc(F)cc1F)N1CCCC1
 : 9%, 5
COc1cc(C)c(S(=O)(=O)n2cnc3cc([N+](=O)[O-])ccc32)cc1C
 : -5%, -1
CCn1nnnc1NCc1cccn1C
 : -8%, -1
CCC1(CC)Cc2ccccc2-c2nc(-c3ccccc3)oc(=O)c21
 : -2%, -7

Next part.
Each structure is followed by: V. cholerae motility, V. cholerae motility viability
S=C(Nc1cccc(Cn2cc(Cl)cn2)c1)Nc1ccc(Br)cc1Cl
 : 0%, -1
Cc1cc2ccccc2n2c(SCC(=O)Nc3ccc(S(N)(=O)=O)cc3)nnc12
 : 1%, 0
COc1cc(C2C(C(=O)c3cc4ccccc4o3)=C(O)C(=O)N2c2nnc(SCc3ccc(F)cc3)s2)ccc1O (centres undefined)
 : -5%, -2
CS(=O)(=O)N1CCC(C(=O)N2CCC(Cc3ccccc3)CC2)CC1
 : 13%, 3
CCOC(=O)c1c(NC(=O)c2ccc(Cl)c([N+](=O)[O-])c2)sc(C(=O)Nc2ccccc2F)c1C
 : -7%, -3
COC(=O)c1ccc(NC(=O)Nc2ccc(Cl)c(Cl)c2)cc1
 : 15%, 30
O=C(Oc1ccc2c3c(c(=O)oc2c1)CCC3)c1ccccc1[N+](=O)[O-]
 : 16%, 2
C#CC(CC)(CC)NC(=O)Nc1ccc(OC)cc1
 : 5%, 35
COc1ccc2[nH]c(C)c(CN3CCOCC3)c(=O)c2c1
 : 2%, 3
Cc1c(C(=O)O)c(=O)n(-c2ccccc2)n1-c1ccccc1
 : 28%, 2

Remaining list, next part
Each structure is followed by: V. cholerae motility, V. cholerae motility viability
C=CCNC(=O)C12CC3CC(CC(C3)C1)C2
 : -2%, -6
Cc1cc(C)c(C#N)c(SCC(O)CS(=O)c2ccc(C(C)(C)C)cc2)n1 (centres undefined)
 : -4%, 1
CCC(=O)Oc1ccc(C(=O)Nc2cccc3c2C(=O)NC3=O)cc1
 : -4%, -5
COc1ccc(C(=O)Nc2ccccc2N2CCN(C(=O)C(C)C)CC2)cc1Cl
 : -14%, -1
Cc1cc(=O)[nH]c(SCC(=O)N2CCN(C(c3ccccc3)c3ccccc3)CC2)n1
 : -6%, 0
O=C1CS/C(=N\C(=O)NC2CCCCC2)N1
 : 11%, 25
COC(=O)c1ccc(Nc2ncnc3scc(-c4ccccc4)c23)cc1
 : -9%, -4
CC1(C(=O)Nc2ccc3c(c2)OC2(CCCCC2)O3)CC1(Cl)Cl (centres undefined)
 : 22%, -1
CCS(=O)(=O)c1ccc(O)c(NC(=O)COc2ccccc2)c1
 : -30%, -16
CN(C)c1nc(N)nc(CSc2ccccn2)n1
 : 7%, 25

(cont.)
Each structure is followed by: V. cholerae motility, V. cholerae motility viability
CC1CC(C)CN(CCOc2cccc(Cl)c2Cl)C1 (centres undefined)
 : 25%, 9
Nc1nnc(SCC(=O)N2c3ccccc3Sc3ccc(C(F)(F)F)cc32)s1
 : 16%, 3
O=C(CSc1nnnn1-c1ccc(F)cc1F)Nc1ccc2c(c1)OCCO2
 : 23%, 1
N#CCc1ccc(NC(=O)c2ccc(Cl)c(Cl)c2)cc1
 : 2%, -6
Cc1ccc(S(=O)(=O)N(c2ccc(Br)cc2)C2C=CS(=O)(=O)C2)cc1 (centres undefined)
 : 5%, 1
N#C/C(=C\c1cc(Cl)ccc1OCc1c(F)cccc1Cl)c1nc2ccccc2[nH]1
 : -8%, -10
O=C(Cc1c(O)c2ccccc2[nH]c1=O)Nc1ccc(Br)cc1
 : 40%, 6
CCOC(=O)CSc1n[nH]c(CC)n1
 : -8%, -3
CCOC(=O)CCC(=O)Nc1ccc(S(=O)(=O)NC(C)C)cc1
 : -13%, 0
FC(c1nc2ccc(Cl)cc2[nH]1)C(F)(F)F (centres undefined)
 : 52%, 12

Next compounds follow:
Molecule	V. cholerae motility	V. cholerae motility viability
COc1ccc(C(CC(=O)O)NC(=O)C(c2ccccc2)c2ccccc2)cc1 (centres undefined)	10%	-3
Nc1ccc(Sc2ccc(N)cc2)cc1	-23%	-8
COc1cc(Br)cc(C=O)c1O	16%	8
C=CCNC(=O)C(=O)Nc1ccc([N+](=O)[O-])cc1	4%	-2
O=C(NCCc1c[nH]c2ccccc12)C(Cl)Cl	0%	-4
O=C(Nc1ccc(N2CCOCC2)c2nonc12)c1csc2ccccc12	-20%	-9
COc1cccc(COc2noc3nc4c(cc23)CCCC4)c1	-8%	-7
CC(Sc1n[nH]c(N)n1)C(=O)OC1CCCCC1 (centres undefined)	19%	1
COc1ccc2c(Cl)c(C(=O)Nc3cccc(C(F)(F)F)c3)sc2c1Cl	14%	0
COC(=O)/C=C(\C)NCCN/C(C)=C/C(=O)OC	1%	1
O=C(OCc1ccccc1Cl)c1ccc(-n2cnnc2)cc1	7%	5
CCC(C)c1ccc(OCC(=O)Nc2ccc(OC)c([N+](=O)[O-])c2)cc1 (centres undefined)	51%	20
O=C(CSC1=NCCS1)N1CCN(C(c2ccccc2)c2ccccc2)CC1	6%	1
O=C(CC(C(=O)O)C1CCCO1)Nc1ccc(Cl)cc1Cl (centres undefined)	9%	-7
S=c1[nH]nc(-c2cnccn2)n1-c1ccc2c(c1)OCCO2	7%	4

Next part:
Molecule	V. cholerae motility	V. cholerae motility viability
O=C(CSc1ccc(C(F)(F)F)cc1[N+](=O)[O-])OCC1CCCO1 (centres undefined)	4%	-2
O=C(Nc1ncccn1)c1cccc(C(F)(F)F)c1	-20%	-7
O=C(CS(=O)(=O)c1ccc2ccccc2c1)c1ccc([N+](=O)[O-])cc1	-5%	-7
COc1cccc(C(=O)NNC(N)=O)c1	-22%	-18
CC(=O)c1sc2nc(-c3cccs3)ccc2c1N	-9%	-1
O=c1[nH]c(CSc2nnc(CCCOc3ccc(Cl)cc3Cl)o2)nc2ccccc12	11%	1
S=c1[nH]ncn1NCc1cccc(Br)c1	13%	1
Cc1sc2c(c1C)c(=O)nc1scc(CC(=O)O)n12	-5%	-6
Cc1ccc2c(Cl)c(C(=O)Nc3cc(=O)n(C)c(=O)n3C)sc2c1	2%	2
Cc1ccc(C)c(Nc2nc(NCCO)c3ccccc3n2)c1	6.9µg/mL*	-0.7*
CSc1ncc(C(=O)N2CCOCC2)cn1	8%	-6
O=C1OCCC1Sc1nnc(-c2ccco2)o1 (centres undefined)	6%	2
CCOC(=O)c1c(NC2=NC3(CCCCC3)Cc3ccccc32)sc2c1CCCC2	-5%	-1
O=c1oc2cc(Oc3ccc([N+](=O)[O-])cc3C(F)(F)F)ccc2c2ccccc12	-36%	-11
O=C(c1ccsc1)N1CCN(C(=O)c2cccs2)CC1	-12%	-4

Profiles, looked up by structure.
Cc1nn(C)c(-c2n[nH]c(=S)n2-c2ccc(CC(=O)O)cc2)c1Br reads V. cholerae motility = 6%; V. cholerae motility viability = 9
S=c1[nH]nc(-c2cnccn2)n1-c1ccc2c(c1)OCCO2 reads V. cholerae motility = 7%; V. cholerae motility viability = 4
COc1ccc2c(Cl)c(C(=O)Nc3cccc(C(F)(F)F)c3)sc2c1Cl reads V. cholerae motility = 14%; V. cholerae motility viability = 0

Additional structures follow.
Molecule	V. cholerae motility	V. cholerae motility viability
N#C/C(=C\c1ccco1)Sc1nc2ccccc2s1	15%	7
CCCCN(Cc1cc2ccccc2o1)S(=O)(=O)c1ccc(OCC)cc1	15%	10
Cc1cccc(C)c1NC(=O)CSc1nc2ccccc2c(=O)[nH]1	1%	-3
O=C(c1ccco1)N1CCN(CCN2C(=O)c3cccc4cccc(c34)C2=O)CC1	-6%	-4
O=C1CCCN1C(=O)c1cncc(Br)c1	-17%	-7
O=c1cc(-c2ccccc2)[nH]n1-c1nc2ccccc2[nH]1	-8%	-9
O=C(NC(=S)Nc1ccc(N2CCOCC2)c(Cl)c1)c1ccc(-c2ccccc2F)o1	-17%	-7
CC(C(=O)Nc1ccc(N2CCN(S(C)(=O)=O)CC2)cc1)(c1ccccc1)c1ccccc1	-21%	-8
COc1ccc(N2CCN(C(=O)c3cccc(Br)c3)CC2)c([N+](=O)[O-])c1	0%	-1
COc1cc(CNc2ccc3c(c2)OCCO3)ccc1OCC(N)=O	3%	5
O=S(=O)(Nc1ncccn1)c1ccc(NC(=S)Nc2ccc(F)c(Cl)c2)cc1	100%	100
C(=C\c1nn2c(-c3ccco3)nnc2s1)/c1ccccc1	8%	2
Cc1cccc(N(Cc2ccc(F)cc2)C(=O)c2ccccc2)c1C	6%	10
Cc1ccc(NC(=O)CNc2ccc3c(c2)OCCO3)c(C)c1	-9%	5
COc1ccc(CCn2c3c(c(=O)[nH]c2=O)C(c2c(C)[nH]n(-c4ccccc4)c2=O)(C(F)(F)F)C(=O)N3)cc1OC (centres undefined)	6%	10

Other results
Molecule	V. cholerae motility	V. cholerae motility viability
Cc1nnc(NC(=O)CSc2nnc(C)c(=O)[nH]2)s1	3%	5
CCC(=O)Nc1ccc(S(=O)(=O)Nc2cccnc2)cc1	7%	34
Cc1[nH]c2ccccc2c1CCC(=O)NC1CCCCC1	10%	5
COc1ccc(C2CC(c3ccccc3)=NN2c2ccc(S(N)(=O)=O)cc2)cc1OC (centres undefined)	-26%	-3
OCCNc1nc(Nc2ccc(Cl)cc2)nc(N2CCCC2)n1	-6%	2
CCOc1ccc(C(CC(=O)O)NS(=O)(=O)c2ccc(C)cc2)cc1 (centres undefined)	-5%	-4
O=C(CCN1C(=O)c2ccccc2C1=O)Oc1ccc(I)cc1	-10%	-7
Clc1ccc2nc3c4ccccc4cnn3c2c1	11%	-5
CSc1ccc(Cl)c(C(=O)Nc2c(C)nn(-c3ccccc3)c2C)c1	18%	9
CC(=O)N(CCC(Cc1ccccc1)c1ccco1)Cc1ccco1 (centres undefined)	12%	3
CC(=O)c1ccccc1OCC(O)CN1CCN(Cc2ccc3c(c2)OCO3)CC1 (centres undefined)	-2%	1
COc1c(C(=O)NCc2ccco2)cc2ccccc2c1Br	15%	-3
